Autophagy mod: autophagy modulation, high-content screen | hit rate 0.98% among 190,000 | calls only at 10 µM (by protocol) | AID 463193 | MEF GFP-LC3 puncta imaging; test concentration mostly 10 µM;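 active = percentage of spot-positive cells more than 3 SD above its plate mean, without a fluorescence outlier flag or 80% toxicity; inconclusive = no clear call, values can overlap the other calls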;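 also: spot-positive cell cutoff set from DMSO-treated cells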
WT yeast gro inh: growth inhibition of WT yeast, mitochondrial fusion screen | mitochondrial fusion phenotypic screen, WT strain | inhibition, % at 10 µM | hit rate 2.1% among 190,000 | AID 1362; in the data active = inhibition above about 58%; tested in S. cerevisiae
Dengue-2 NS5 capping: flavivirus cap methylation enzyme inhibition – biochemical, confirmation dose response, primary screen (AID 588689); hit rate 0.3% among 340,000; Dengue-2 NS5 methyltransferase capping enzyme assay, biochemical; higher % means a stronger effect; one-dose inhibition, % at 25 µM; IC50 in µM for titrated hits; in the data active = a potency from the dose series; inconclusive = inhibition above about 29% without an active follow-up result
GPR35 antagonists: inhibition of zaprinast-stimulated GPR35 beta-arrestin translocation – imaging, U2OS, beta-arrestin-GFP, zaprinast agonist, primary screen (AID 2058) | one-dose inhibition, % at 10 µM; IC50 in µM for titrated hits | U2OS GPR35 beta-arrestin-GFP translocation imaging, zaprinast antagonism; higher % means a stronger effect | hit rate 0.052% among 290,000;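 active = inhibition of at least 50% with at least 30 cells and total cytoplasm GFP at most 10,000,000; inconclusive = under 30 cells or total GFP of 10,000,000 plus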
AID2073: inhibitors of Mint1-CaV2.2 protein interaction, biochemical, HTRF (AID 2073); HTRF protein-protein interaction, Mint1-CaV2.2; higher % means a stronger effect; inhibition, % at 20 µM; hits with a dose series show IC50 in µM; hit rate 0.19% among 290,000; in the data active = inhibition mostly above about 51%, no sharp cut-off; inconclusive = no clear call, values can overlap the other calls; inactive = mostly below about 53%; also: some results filed as inactive read as strong as hits
WT yeast gro inh mutant strain: also measured in WT yeast gro inh; calls as there; inhibition, %; mitochondrial fusion phenotypic screen, mutant strain inhibition
Autophagy mod cell loss 18 h: recorded beside Autophagy mod, whose call it bears; toxicity, %; measured here: cell loss, nuclei count;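 cell loss after 18 h compound exposure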
An asterisk follows results filed as active; i = inactive; ? = inconclusive; . = not tested or not shown. A portion of the library; the hit share may differ from the screen's.

# | mol | Autophagy mod | Autophagy mod cell loss 18 h | WT yeast gro inh | WT yeast gro inh mutant strain
1 | CC(C)n1c(/C=C/[C@H](O)C[C@H](O)CC(=O)O)c(-c2ccc(F)cc2)c2ccccc21 | . | . | . | .
2 | OC(Cn1cncn1)(Cn1cncn1)c1ccc(F)cc1F | . | . | . | .
3 | Cc1ccc(NC(=O)c2sccc2SCc2cccc(C(F)(F)F)c2)cc1 | i | -20 | . | .
4 | Oc1cnn(-c2ccccc2)c1 | i | -5 | 8 | -5
5 | NS(=O)(=O)c1cc(C(=O)O)c(NCc2ccco2)cc1Cl | . | . | . | .
6 | CCOc1cc(/C=N/NC(=O)c2ccc(-c3csc(Nc4ccc(C)cc4)n3)cc2)ccc1OCC(=O)O | i | 1 | 3 | -6
7 | CCCCc1nc(Cl)c(CO)n1Cc1ccc(-c2ccccc2-c2nnn[nH]2)cc1 | . | . | . | .
8 | CCN1CCC[C@H]1CNC(=O)c1c(OC)ccc(Br)c1OC | . | . | . | .
9 | Nc1nc(Cl)c(N)c(NCC2(CO)CC(CCc3ccccc3)C2)n1 (centres undefined) | . | . | . | .
10 | O=C(C=Cc1cccs1)c1ccccc1 | . | . | . | .
11 | COc1cccc(C2C(C(=O)Nc3ccccc3)=C(C)N=c3s/c(=C/c4ccc(OCC(=O)O)cc4)c(=O)n32)c1 (centres undefined) | i | 11 | 5 | 18
12 | O=C1CCc2ccc(OCCCCN3CCN(c4cccc(Cl)c4Cl)CC3)cc2N1 | . | . | 84* | 82*
13 | CC12C=CC(=O)C=C1CCC1C2C(=O)C[C@@]2(C)C1CCC2(O)C(=O)CO (some centres undefined) | . | . | . | .
14 | O=C(CCCCCCC(=O)Nc1ccccc1)NO | . | . | . | .

# | Dengue-2 NS5 capping | GPR35 antagonists | AID2073
1 | 3% | . | .
2 | -3% | . | .
3 | 2% | 7% | 4%
4 | -8% | -4% | -1%
5 | -1% | . | .
6 | . | 17% | 11µM*
7 | -1% | . | .
8 | 9% | . | .
9 | 11% | . | .
10 | 5% | . | .
11 | -6% | -7% | 16%
12 | ? | -6% | 5%
13 | 1% | . | .
14 | -2% | . | .

One compound at a time, as listed above. Values in the order: Autophagy mod	Autophagy mod cell loss 18 h	WT yeast gro inh	WT yeast gro inh mutant strain	Dengue-2 NS5 capping	GPR35 antagonists	AID2073
O=C(CCCCCCC(=O)Nc1ccccc1)NO is listed with .	.	.	.	-2%	.	.
CCN1CCC[C@H]1CNC(=O)c1c(OC)ccc(Br)c1OC is listed with .	.	.	.	9%	.	.
Nc1nc(Cl)c(N)c(NCC2(CO)CC(CCc3ccccc3)C2)n1 (centres undefined) is listed with .	.	.	.	11%	.	.
COc1cccc(C2C(C(=O)Nc3ccccc3)=C(C)N=c3s/c(=C/c4ccc(OCC(=O)O)cc4)c(=O)n32)c1 (centres undefined) is listed with i	11	5	18	-6%	-7%	16%
CC(C)n1c(/C=C/[C@H](O)C[C@H](O)CC(=O)O)c(-c2ccc(F)cc2)c2ccccc21 is listed with .	.	.	.	3%	.	.

Compound activity as filed in PubChem.
